GIV Gai3 FP: inhibitors of GIV GBA-motif binding to rat Galpha-i3; hit rate 0.42% among 210,000; Galpha-i3/FITC-GIV peptide fluorescence polarization, 90 min; hits give low values; scaled: aluminum fluoride 0%, vehicle 100%; P08753; AID 1224905; percent of control (FP), % (no concentration beside the values);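 active = replicate mean at 85% of control or lower, very high polarization wells dropped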;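 also: wells of about 15 µL received 100 nL stock; the first replicate is given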
Target sequence (P08753 whole entry, looked up): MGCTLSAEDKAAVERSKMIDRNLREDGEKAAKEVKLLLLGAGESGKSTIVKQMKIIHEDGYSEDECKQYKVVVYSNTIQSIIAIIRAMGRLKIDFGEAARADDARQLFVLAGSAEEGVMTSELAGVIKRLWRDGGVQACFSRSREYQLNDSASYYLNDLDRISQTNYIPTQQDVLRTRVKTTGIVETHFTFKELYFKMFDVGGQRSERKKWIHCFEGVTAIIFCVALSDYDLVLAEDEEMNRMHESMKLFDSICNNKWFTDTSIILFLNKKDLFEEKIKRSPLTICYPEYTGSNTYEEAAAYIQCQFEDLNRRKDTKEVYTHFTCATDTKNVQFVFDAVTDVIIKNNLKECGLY
HCMV NEC inh: cytomegalovirus nuclear egress complex inhibition; inhibition, % (concentration not given with the values); AID 1918969; hit rate 0.15% among 190,000; HTRF UL50-UL53 interaction, normalized percent inhibition;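 active = both replicates at 50% or more, plus weaker picks with an unusually low signal ratio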;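 also: stock transfer was 100 nL into about 20 µL; 0% = negative control wells and 100% = wells with untagged competitor protein; inactives centre near -12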
Sa growth 42C: blocks Staphylococcus aureus growth; hit rate 0.53% among 170,000; relative growth, % (test concentration not listed); AID 720641; S. aureus RN4220 growth, OD600, 20 h, 42 °C; hits give low values;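 active = growth at 42 °C up to 50% and 20 or more points under that at 30 °C, or under 10% at both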;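 also: 300 nL library stock went into each well; scaled to the means of positive and negative controls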
Sa growth 42C second temp: second read-out of Sa growth 42C, no call of its own (marks repeat the call); relative growth, %; measured here: growth at 30 °C;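 optical density after 20 h as mean of two plates; 100% = untreated growth and lower means inhibition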
* hit, by the source's call; . = no result given; & = joins results of further samples.

SMILES	GIV Gai3 FP	HCMV NEC inh	Sa growth 42C	Sa growth 42C second temp
CCc1c(C)nc(SCC(=O)Nc2ccc(Br)cc2)c(C#N)c1C	100	-7	.	.
S=C1NCN(Cc2ccncc2)CN1	95	-26	85	87
CC(C)c1ccccc1NC(=O)C1CCCCC1	99	-11	99	101
Cc1ccc2[nH]c3c(c2c1)CCCC3NC1CCCCC1 (stereo unspecified)	102	.	96	71
O=C1S/C(=C\c2ccccc2)C(=O)N1CN1CCOCC1	97	-46	105	70
O=C(CN1C(=O)C2CCCCN2c2ccc(C(=O)N3CCCCC3)cc21)NC1CCN(Cc2ccccc2)CC1 (stereo unspecified)	104	-27	.	.
CC(Nc1nc(N2CCNCC2)nc2ccccc12)c1ccccc1 (stereo unspecified)	102	.	121	72
Cc1ccc(C2CC(=O)n3nc(-c4cccc(C)c4)nc3S2)cc1 (stereo unspecified)	105	9	91	97
CCOC(=O)COc1ccc(/C=C2\C(=O)NC(=O)N(c3ccc(OC)cc3)C2=O)cc1OC	116	0	.	.
COc1ccc(-c2noc(-c3cn(C)c4cc(N5CCCCC5)c(F)cc4c3=O)n2)cc1OC	104	-31	.	.
COC(=O)CNC(=O)c1ccco1	.	-29	100	88
CC(C)NC(=O)N1CCCC(c2cccc(C(=O)NC(C)c3ccc(F)cc3)c2)C1 (stereo unspecified)	109	-22	.	.
COc1ccc(N(Cc2nc3ccccc3o2)S(=O)(=O)c2cc(C)ccc2C)cc1	.	-12	99	92
C=CCn1c(=O)c2ccccc2n2c(SCC(N)=O)nnc12	.	-12	86	89
COC(=O)c1cc(-c2ccccc2)c(N2CCCC2)s1	106	-17	100	86
Cc1noc(C)c1CSCC(=O)Nc1nccs1	.	-14	88	98
Cc1oncc1C(=S)Nc1ccccc1	102	-21	101	88
CCN(CC)C(=O)c1scc2c1OCCO2	97	-26	99	90
Cc1noc(-c2ccccc2OCC(=O)Nc2c(C)n(C)n(-c3ccccc3)c2=O)n1	98	-26	.	.
Clc1ccc(CCNc2nc3ccccc3c3nc(-c4ccccc4)nn23)cc1	101	-34	111	84
CN(C)c1cccc(NC(=O)c2ccncc2)c1	.	9	118	100
Cc1ccccc1NC(=O)c1c[nH]c2ccccc2c1=O	.	-12	101	86
CCOC(=O)C1=C(CN2CCn3cccc3C2C)NC(=O)NC1c1ccc(OC(C)C)cc1 (stereo unspecified)	110	-23	.	.
Cn1c(=O)c(-c2noc(CCC(=O)N3CCN(c4ccccc4)CC3)n2)nn(-c2ccccc2)c1=O	105	-69	.	.
Cn1c(=NC(=O)CSCC(=O)N2CCCC2)sc2cc(Br)ccc21	104	-1	106	87

More structures.
SMILES	GIV Gai3 FP	HCMV NEC inh	Sa growth 42C	Sa growth 42C second temp
CCCSc1nc2c(c(-c3ccco3)c1C#N)CCCC2	116	11	101	98
COC(=O)C1C(c2ccccc2)C(C(=O)OCc2ccco2)C1c1ccccc1 (stereo unspecified)	94	-20	86	105
Cc1ccc(C)c(N2CCN(C(=O)CCS(=O)(=O)c3cc(Br)cc4c3N(C(=O)C3CC3)CC4)CC2)c1	101	-8	110	88
Cc1ccc2c(c1)N(CCC(=O)O)C(=O)CO2	106	-6	109	98
CCCS(=O)(=O)NCc1ccco1	.	-14	92	78
CCS(=O)(=O)N1CCC(C(=O)N2CCOCC2)CC1	100	-19	102	85
COc1ccc2c(c1)CN(CCc1ccc(Cl)cc1)CO2	107	-41	93	63
CCc1cccc(NC(=O)CSc2ncc3c(n2)-c2ccccc2N(CC)S3(=O)=O)c1	104	.	88	91
CCc1ccc(S(=O)(=O)c2cn(Cc3ccccc3)c3cc(F)c(F)cc3c2=O)cc1	97	-23	104	88
CCC(C)S(=O)(=O)c1scc(-c2ccc(Cl)cc2)c1C#N (stereo unspecified)	99	-14	100	98
CCC(=O)N1CCN(Cc2nc3cc(NC(C)=O)ccc3n2C)CC1	105	7	.	.
Cc1c(Cl)cccc1NC(=O)CSc1nc(=O)n(Cc2ccncc2)c2c1CCC2	107&100	.	98	96
O=C(CSc1nc2ccccc2s1)n1c2ccccc2c2ccccc21	100	.	106	79
CCOC(=O)c1c(C)[nH]c(C)c1S(=O)(=O)N1CCC(C(=O)NCc2ccc(F)cc2)CC1	113	.	94	96
CC(C)CC1NC(=O)N(CCCCN2C(=O)c3ccccc3C2=O)C1=O (stereo unspecified)	.	-23	95	93
CCOC(=O)c1cc2n(c1C)-c1ccccc1C2=O	98	-60	98	79
COc1ccc(N(C)C(=S)Nc2ccc3nc(-c4ccco4)c(-c4ccco4)nc3c2)cc1	129	-31	103	69
CN(C)/N=C/c1ccc(OC(=O)c2ccco2)cc1	.	-15	91	89
COc1cc(/C=C2/SC(=S)N(CCC(=O)NC3=NCCS3)C2=O)cc(OC)c1OC	106	-9	.	.
CCCC1(C(=O)OCC)NC(c2ccc(N(C)C)cc2)C2C(=O)N(c3ccc(OCC)cc3)C(=O)C21 (stereo unspecified)	98	-8	92	75
CSc1ccc(C2CC(=O)N3CN(C)CSC3=C2C#N)cc1 (stereo unspecified)	108	-27	63	54
O=c1cccc(-c2ccccc2)[nH]1	102	-26	92	87
CCC(=O)c1cn(CC(=O)NCCOc2ccc(Cl)cc2)c2ccccc12	104	.	98	85
CCc1ccc(CNC(=O)CCn2c(=O)oc3ccccc32)cc1	101	7	94	96
O=C(NC1CCCCCC1)c1cccc(N2CCCC2=O)c1	109	.	79	90

(more compounds)
SMILES	GIV Gai3 FP	HCMV NEC inh	Sa growth 42C	Sa growth 42C second temp
CCN(CC)S(=O)(=O)c1ccc(S(=O)(=O)N2CCN(C)CC2)cc1	109	-19	103	95
CC(C)(C)c1ccc(C(=O)NCCc2ccccn2)cc1	.	-13	106	95
N#CN(Cc1ccccc1)Cc1ccccc1	103	-4	.	.
CCOC(=O)C1CCN(C(=S)NC2Cc3ccccc3C2)CC1	102	.	87	74
COCc1cc(=O)[nH]c(Nc2nc3ccccc3s2)n1	.	-9	105	90
O=C(NC1CCCC1)c1cccc(Nc2ccc(-c3ccccc3)nn2)c1	108	-7	.	.
Cc1ccc(CNS(=O)(=O)c2ccc(C(=O)N(C)C)s2)cc1	103	.	108	91
Nc1ccc(CN2CCCC2)cc1	101	-5	88	93
Cc1cc(=O)n2nc(CN3CCN(C4CCS(=O)(=O)C4)CC3)sc2n1 (stereo unspecified)	.	-15	87	97
O=C(NCCCn1ccnc1)c1cc2c(s1)CCCC2	.	-31	94	87
O=C(O)CSc1c2c(nc3cc(C(=O)NCc4cccnc4)ccc13)CCC2	104	-24	102	91
O=C(CN1CCN(Cc2nc3ccccc3s2)CC1)N1CCc2ccccc21	.	-10	100	95
N=C(N)COc1ccccc1Cl	97	9	110	92
CC(C)CC(=O)Nc1ccccc1-c1nnn(CC(=O)N2CCc3ccccc3C2)n1	101	-8	97	73
Cc1ccc(C2=NNC(=O)CC2)cc1	105	.	82	87
CCn1cc(C(=O)O)cn1	103	-17	100	88
N#Cc1cc(Oc2ccc(C(=O)c3ccccc3)cc2)nc2ccccc12	98	.	92	92
O=C(O)CCc1ccc(-c2cccs2)n1NC(=O)c1cccs1	110	7	101	100
O=C(NCC(=O)N1CCC(n2c(=O)[nH]c3ccccc32)CC1)c1ccc2ccccc2c1	.	-33	92	70
O=C(Nc1ccccc1)c1ccn(C(=O)c2ccccc2)n1	.	-25	102	90
CC(=O)Nc1ccc(NC(=O)C(Cc2ccccc2)N2Cc3ccccc3C2=O)cc1 (stereo unspecified)	106	.	93	68
Cc1cccc(-c2nc(CCNC(=O)c3ccco3)cs2)c1	98	.	90	79
CCC1CCCCN1C(=O)CSc1nnc(CNC(=O)c2ccco2)o1 (stereo unspecified)	98	-14	92	95
O=C(CSC1=Nc2ccccc2N=C(c2ccc(F)cc2)C1)NCc1ccc(Cl)cc1	106	.	93	84
CC(C(=O)N1CCCC1)N1CCN(c2ccc(F)cc2)CC1 (stereo unspecified)	94	3	84	89

Other records follow.
SMILES	GIV Gai3 FP	HCMV NEC inh	Sa growth 42C	Sa growth 42C second temp
C=CCC(NC(C)c1ccco1)c1ccccc1 (stereo unspecified)	101	-11	91	83
CC(=O)N(CCOc1ccccc1)CCOc1ccccc1	.	-4	97	87
Nc1nc2sc3c(c2cc1C(=O)NCC(=O)O)CCCC3	98	-74	104	86
CCn1c(=O)cc(OCC(=O)N2CCCC2)c2ccccc21	101	.	85	27
O=C(NCCn1c(CCc2ccccc2)nc2cccnc21)c1ccccc1Br	108	1	.	.
COc1ccc(C(=O)OCC(=O)c2cc3c4c(c2)CC(=O)N4CCC3)cc1Br	.	5	97	101
CN(CCO)CC(O)Cn1cnc2c1c(=O)n(C)c(=O)n2C (stereo unspecified) (tested in a mixture with another compound)	.	-82	90	83
CCCn1c(=NC(=O)c2cccs2)sc2cc(S(C)(=O)=O)ccc21	103	-20	104	95
O=C(CCC(=O)N1CCC(c2ccccc2)=N1)N1CCN(c2ccccc2)CC1	.	5	92	95
NC(=O)NN=C1c2cc(S(=O)(=O)NCCO)ccc2-c2ccc(S(=O)(=O)NCCO)cc21	98	-45	95	91
O=S(=O)(c1ccccc1)N1CCC(c2nc(-c3ccc4c(c3)OCO4)no2)CC1	104	-10	.	.
Cn1c(C(=O)NCc2cccs2)cc2c(=O)[nH]c3ccccc3c21	100	3	103	99
CCC1CCCCN1C(=O)Cn1c(=O)n(Cc2ccccc2)c(=O)c2c3c(sc21)CCC3 (stereo unspecified)	102	.	98	95

Shown in CSV form: entries from further up
SMILES,GIV Gai3 FP,HCMV NEC inh,Sa growth 42C,Sa growth 42C second temp
N=C(N)COc1ccccc1Cl,97,9,110,92
CC(C)CC(=O)Nc1ccccc1-c1nnn(CC(=O)N2CCc3ccccc3C2)n1,101,-8,97,73
Cc1ccc(C2=NNC(=O)CC2)cc1,105,.,82,87
CCn1cc(C(=O)O)cn1,103,-17,100,88
N#Cc1cc(Oc2ccc(C(=O)c3ccccc3)cc2)nc2ccccc12,98,.,92,92
O=C(O)CCc1ccc(-c2cccs2)n1NC(=O)c1cccs1,110,7,101,100
O=C(NCC(=O)N1CCC(n2c(=O)[nH]c3ccccc32)CC1)c1ccc2ccccc2c1,.,-33,92,70
O=C(Nc1ccccc1)c1ccn(C(=O)c2ccccc2)n1,.,-25,102,90
CC(=O)Nc1ccc(NC(=O)C(Cc2ccccc2)N2Cc3ccccc3C2=O)cc1 (stereo unspecified),106,.,93,68
Cc1cccc(-c2nc(CCNC(=O)c3ccco3)cs2)c1,98,.,90,79
CCC1CCCCN1C(=O)CSc1nnc(CNC(=O)c2ccco2)o1 (stereo unspecified),98,-14,92,95
O=C(CSC1=Nc2ccccc2N=C(c2ccc(F)cc2)C1)NCc1ccc(Cl)cc1,106,.,93,84
CC(C(=O)N1CCCC1)N1CCN(c2ccc(F)cc2)CC1 (stereo unspecified),94,3,84,89
C=CCC(NC(C)c1ccco1)c1ccccc1 (stereo unspecified),101,-11,91,83
CC(=O)N(CCOc1ccccc1)CCOc1ccccc1,.,-4,97,87
Nc1nc2sc3c(c2cc1C(=O)NCC(=O)O)CCCC3,98,-74,104,86
CCn1c(=O)cc(OCC(=O)N2CCCC2)c2ccccc21,101,.,85,27
O=C(NCCn1c(CCc2ccccc2)nc2cccnc21)c1ccccc1Br,108,1,.,.
COc1ccc(C(=O)OCC(=O)c2cc3c4c(c2)CC(=O)N4CCC3)cc1Br,.,5,97,101
CN(CCO)CC(O)Cn1cnc2c1c(=O)n(C)c(=O)n2C (stereo unspecified) (tested in a mixture with another compound),.,-82,90,83
CCCn1c(=NC(=O)c2cccs2)sc2cc(S(C)(=O)=O)ccc21,103,-20,104,95
O=C(CCC(=O)N1CCC(c2ccccc2)=N1)N1CCN(c2ccccc2)CC1,.,5,92,95
NC(=O)NN=C1c2cc(S(=O)(=O)NCCO)ccc2-c2ccc(S(=O)(=O)NCCO)cc21,98,-45,95,91
O=S(=O)(c1ccccc1)N1CCC(c2nc(-c3ccc4c(c3)OCO4)no2)CC1,104,-10,.,.
